KCNQ2 enhance – potentiators of rat KCNQ2 potassium channel; Potassium voltage-gated channel subfamily KQT member 2 (Rattus norvegicus), O88943; CHO-K1 KCNQ2, FluxOR thallium flux fluorescence; active compounds read high; B-score at 10 µM; actives 0.54% (n = 310,000); AID 2239, 2010;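 active = fluorescence ratio B-score at least 3 SD of library B-scores, with initial fluorescence B-score within 3 SD, cut at about 5.3 in these data; same plate scores as AID 2156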;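 note: B-score of peak minus minimum over baseline fluorescence ratio after K+ and Tl+ stimulus; positive B-score means potentiation of KCNQ2 with more thallium influx and brighter signal; only the inactives scoring about 0 or higher are listed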
Target sequence (O88943 whole entry, looked up): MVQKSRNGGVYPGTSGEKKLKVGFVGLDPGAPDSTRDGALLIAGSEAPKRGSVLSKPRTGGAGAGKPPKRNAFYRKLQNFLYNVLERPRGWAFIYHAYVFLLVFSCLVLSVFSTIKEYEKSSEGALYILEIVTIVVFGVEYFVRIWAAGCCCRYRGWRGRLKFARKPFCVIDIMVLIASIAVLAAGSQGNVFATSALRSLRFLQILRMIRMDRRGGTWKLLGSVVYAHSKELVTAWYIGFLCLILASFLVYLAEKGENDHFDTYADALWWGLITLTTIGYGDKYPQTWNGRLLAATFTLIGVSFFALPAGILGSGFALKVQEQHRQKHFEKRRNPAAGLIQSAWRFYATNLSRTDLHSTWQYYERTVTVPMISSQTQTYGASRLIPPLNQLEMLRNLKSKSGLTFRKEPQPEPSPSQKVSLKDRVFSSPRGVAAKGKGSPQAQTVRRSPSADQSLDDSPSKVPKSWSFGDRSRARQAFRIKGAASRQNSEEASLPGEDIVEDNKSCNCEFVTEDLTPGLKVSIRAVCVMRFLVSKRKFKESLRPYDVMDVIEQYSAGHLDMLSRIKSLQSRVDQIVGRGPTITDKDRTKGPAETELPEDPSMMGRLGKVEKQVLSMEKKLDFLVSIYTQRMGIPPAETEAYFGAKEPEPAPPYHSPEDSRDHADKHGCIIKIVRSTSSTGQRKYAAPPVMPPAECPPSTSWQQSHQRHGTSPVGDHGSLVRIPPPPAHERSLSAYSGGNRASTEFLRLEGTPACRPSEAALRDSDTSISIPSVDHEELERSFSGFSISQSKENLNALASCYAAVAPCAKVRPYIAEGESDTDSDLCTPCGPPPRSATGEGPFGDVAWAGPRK
KCNQ2 enhance baseline – recorded beside KCNQ2 enhance, whose call it bears; B-score; compound at 10 µM; measured here: initial fluorescence intensity artifact check;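 brightness before thallium and not channel activity; 0 = typical well and far values either way flag optical interference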
Active calls of the source: *. Only part of the results is shown; rates above refer to the full screens.

Molecule | KCNQ2 enhance | KCNQ2 enhance baseline
Cc1ccc(-c2nnc(SCC(=O)N/N=C/c3ccc(C)s3)n2-c2ccc(C)cc2)cc1 | 0.09 | -0.09
CNS(=O)(=O)c1cccc(C(=O)OCC(=O)/C=C2/N(C)c3ccccc3C2(C)C)c1 | 1.3 | 0.44
Cc1cc(C)c(NC(=O)c2ccc[n+](Cc3ccc([N+](=O)[O-])cc3)c2)c(C)c1 | 0.07 | 1.6
Cc1cc(C)nc(Nc2n[nH]c(-c3ccc(N)cc3)n2)n1 | 0.95 | -0.23
CC1(C)CC(=O)C(C(C2=C(O)CC(C)(C)CC2=O)c2ccco2)C(=O)C1 (stereo not given) | 5.4* | -1.1*
Cc1ccc(C(=O)NC2CCN(C(=O)Nc3ccccc3Cl)CC2)cc1 | 0.05 | 0.01
COC(=O)CSc1nc2c(c(=O)[nH]c(=O)n2C)n1CCC(C)C | 1.5 | -0.08
CCn1ncc(S(=O)(=O)NCc2ccco2)c1C | 0.9 | 0.61
COc1cc(CC(C#N)(CO)c2nc3ccccc3[nH]2)ccc1OC(F)F (stereo not given) | 0.02 | 1.3
Cc1cc(C(C)(C)C)cc(S(=O)(=O)NCC(=O)O)c1C | 0.92 | -0.08
CCCCn1nc2cc(C(=O)NCc3cc(C(F)(F)F)cc(C(F)(F)F)c3)ccc2c1OC | 0.3 | -0.07
CCOc1ccc(NC(=O)C2CC(=O)N(c3ccccc3F)C2)cc1 (stereo not given) | 0.04 | 0.46
Cc1ccc(C(=O)OCC(=O)Nc2cc(S(C)(=O)=O)ccc2Cl)cc1S(=O)(=O)N1CCCCC1 | 1.1 | 3.1
O=C1CCCCCN1CP(=O)(O)CN1CCCCCC1=O | 1.1 | 0.38
CCC(C(=O)NCCN1CCN(C)CC1)n1c(C)c2cnn(-c3ccccc3)c(=O)c2c1C (stereo not given) | 0.01 | -1.9
CC1CCN(S(=O)(=O)c2ccc(S(=O)(=O)NCC3COCCO3)cc2)CC1 (stereo not given) | 1.4 | 0.04
COc1cc(C(=O)NC(C)c2ccc(-n3ccnc3)cc2)cc(OC)c1C (stereo not given) | 2.6 | 0.16
CCOc1ccc(NC(=O)C2CC=CCC2C(=O)O)cc1 (stereo not given) | 2.5 | 0.01
COc1ccc(-n2c(Cc3cccn3C)nnc2SCC(=O)Nc2cccc(C)c2C)cc1 | 0.64 | -0.76
O=c1c2cc(N3CCOCC3)ccc2[nH]c(=S)n1CCCN1CCCC1 | 0.55 | -0.17
Fc1ccc(CN2C3=NCCN3c3ccccc32)cc1 | 1.1 | 2
CN(CCc1ccccn1)C(=O)CCC1CCCN(C(=O)c2cccc(N(C)C)c2)C1 (stereo not given) | 1 | -0.08
CC(CC(=O)O)CC(=O)Nc1cc(C(F)(F)F)cc(C(F)(F)F)c1 (stereo not given) | 0.77 | 0.34
Cc1nc(-c2ccccc2)cn2c1nc1ccccc12 | 2.1 | 1.8

6 entries from above, with values under each structure.
The line under a structure holds: KCNQ2 enhance, KCNQ2 enhance baseline
COc1cc(C(=O)NC(C)c2ccc(-n3ccnc3)cc2)cc(OC)c1C (stereo not given)
    2.6, 0.16
CCOc1ccc(NC(=O)C2CC=CCC2C(=O)O)cc1 (stereo not given)
    2.5, 0.01
COc1ccc(-n2c(Cc3cccn3C)nnc2SCC(=O)Nc2cccc(C)c2C)cc1
    0.64, -0.76
O=c1c2cc(N3CCOCC3)ccc2[nH]c(=S)n1CCCN1CCCC1
    0.55, -0.17
Fc1ccc(CN2C3=NCCN3c3ccccc32)cc1
    1.1, 2
CN(CCc1ccccn1)C(=O)CCC1CCCN(C(=O)c2cccc(N(C)C)c2)C1 (stereo not given)
    1, -0.08

The listing continues:
Molecule | KCNQ2 enhance | KCNQ2 enhance baseline
CN(C)S(=O)(=O)c1ccc(C(=O)Oc2cc(=O)[nH]c3ccccc23)cc1 | 0.26 | -0.09
COc1ccc(/C=N/Nc2cc(OC)ncn2)cc1 | 0.26 | 3.4
Cc1cc(C)n2cc(CSc3nncn3C)nc2n1 | 0.61 | 1.1
COc1ccc(C(=O)Nc2ccc(S(=O)(=O)NCc3ccco3)cc2)cc1OC | 1.1 | -1.3
CCC(=O)c1ccc(OCC(=O)Nc2nc(-c3cccnc3)cs2)cc1 | 0.58 | -0.93
CCC(Sc1nc(C)cc(=O)[nH]1)C(=O)Nc1sc2c(c1C#N)CCCC2 (stereo not given) | 0.02 | 0.01
O=C(CSc1nnc(Cc2ccccc2)n1-c1ccc(Cl)cc1)N1CCOCC1 | 0.59 | 1.1
CCN(C(=O)c1ccc(S(=O)(=O)N2CCCCC2)cc1)C1CCS(=O)(=O)C1 (stereo not given) | 0.77 | -0.16
COc1ccc(C(=O)Nc2ccc(C(=O)N3CCC(C)CC3)cc2)cc1OC | 1.1 | 0.23
CCOC(=O)c1ccc(NC(=O)CCOc2ccc(C)cc2)cc1 | 0.49 | -0.07
Cc1cccc(CSC2=NCCN2C(=O)C2CC2)c1 | 0.09 | 1.6
Cc1ccc(S(=O)(=O)NCCC(=O)OCC(=O)N2CCCC2=O)cc1 | 1.1 | -0.41
CCCCCCCCCC(=O)Nc1cccnc1 | 2.2 | 1.1
O=C(NCC1CCCO1)c1cc2ccccc2nc1Cl (stereo not given) | 2.8 | 8.1
Cc1ccc(S(=O)(=O)c2ccc(-n3nc(C)cc3N)cc2)cc1 | 0.02 | 1.3
COc1ccc(OC)c(CNC(=O)C2CCN(S(=O)(=O)N3CCCC3)CC2)c1 | 1.5 | -2
N/C(=N\OC(=O)c1cccc(F)c1)c1ccccn1 | 0.26 | -0.1
O=C(O)CCNC(=O)c1ccccc1 | 0.51 | -0.42
COc1ccc(NC(=O)n2ncc3c(C)cccc32)cc1OC | 0.14 | 0.86
CSc1nc(C)cc(SCCO)n1 | 0.02 | -1.8
O=C(N=C1SC2CS(=O)(=O)CC2N1c1ccc(Cl)c(Cl)c1)C1CCCO1 (stereo not given) | 0.53 | -0.25
N=C1C(c2nc3ccccc3[nH]2)=C(O)CN1c1ccc(F)cc1 | 2.1 | 0.64
O=C(NCCN1CCOCC1)C(Sc1ccccc1)c1ccccc1 (stereo not given) | 0.94 | 0.79
CC(=O)Nc1ccc(NC(=O)CSC2=NS(=O)(=O)c3ccccc3N2)cc1 | 1 | 1.8

Other results follow.
canonical_smiles,KCNQ2 enhance,KCNQ2 enhance baseline
COc1ccccc1C(=O)NCCC(=O)N(C)Cc1ccc(C)o1,1.3,-2.5
Cc1ccc(C(=O)Nc2ccc3c(c2)ncn3C)cc1,0.88,1.5
Cc1cc(-c2ccccc2)c(C#N)c(=S)[nH]1,0.32,0.65
COc1ccc(-c2nnc(-c3ccc(N(C)C)cc3)o2)cc1,0.08,-1.2
O=C(NC(=S)N1CCCCC1CO)C12CC3CC(CC(C3)C1)C2 (stereo not given),0.1,-0.01
COc1cc(NC(=O)c2ccc(-c3csc(C)n3)cc2)c(OC)cc1Cl,1.4,-1.4
CNC(=S)Nc1sc2c(c1C(=O)OC)CCC2,5.6*,-0.56*
Cc1c(CNCCc2ccc(Cl)cc2)c(C(=O)O)c(C)n1Cc1ccccc1,0.04,0.04
COC(=O)c1sccc1NC(=O)c1ccncc1,0.36,0.68
COc1ccc(OC)c(NC(=O)C2CC2c2ccccc2)c1 (stereo not given),19*,0.09*
Nc1nc(N)nc(-c2ccccn2)n1,0.05,-1.2
CCn1c2ccccc2c2cc(NC(=O)CSc3nccc(=O)[nH]3)ccc21,2.6,-0.09
CCC(C)c1ccc(S(=O)(=O)N2CC(=O)Nc3ccccc32)cc1 (stereo not given),0.05,-0.57
Cn1nc(C(=O)Nc2ccccc2)c2c1-c1ccccc1S(=O)(=O)C2,1.6,0.5
CCCCCCSc1nsc(NC(=O)CC(C)C)n1,1.2,0.97
COC(=O)CN(C#N)c1nc(N(C)C)nc(N(C)C)n1,0.97,-0.2
Cc1ccc2cc(CN(Cc3cccs3)Cc3nnnn3CC3CCCO3)c(=O)[nH]c2c1 (stereo not given),0.01,-0.56
Cc1ccc(SCC(=O)Nc2cccnc2)cc1,0.98,0.5
COc1ccc(C(=O)Nc2ncc3c(n2)CC(C)CC3=O)cc1 (stereo not given),2.5,1.1
COC(=O)CCN1CCC(C(N)=O)CC1,0.06,-1.2
O=C(NCC1CCCO1)c1cc(S(=O)(=O)N2CCOCC2)ccc1Cl (stereo not given),0.01,0.02
Nc1nnc(CC(=O)N/N=C/c2ccccc2OCc2ccccc2F)s1,0.89,0.56
O=C(O)CCC(=O)N1CCc2cc(S(=O)(=O)N3CCC(Cc4ccccc4)CC3)ccc21,0.06,-0.13
CCc1ccc(NC(=O)c2noc3c2CCc2ccccc2-3)cc1,0.39,-0.64
CCCCSc1nc(C)cc(SCC(=O)N/N=C/c2cccc(OC)c2O)n1,6.3*,0.43*
C=C(C)CNC(=S)Nc1ccc(S(=O)(=O)Nc2cnc3ccccc3n2)cc1,0.07,1.2
O=C(/C=C/c1ccccc1)Oc1cccc2cccnc12,0.28,0.31
CCN(CC(=O)NC(C)(C)C)C(=O)CCl,0.14,0.69
Cc1cccc(NC2=Nc3ccccc3N3C2=Nc2c(c(C)nn2-c2ccccc2)C3c2ccc(O)c(O)c2)c1 (stereo not given),0.96,0.24
Nc1nnnn1/N=C/c1ccco1,0.24,0.01

Entries above that contain a tert-butyl group, in the order listed:
canonical_smiles,KCNQ2 enhance,KCNQ2 enhance baseline
Cc1cc(C(C)(C)C)cc(S(=O)(=O)NCC(=O)O)c1C,0.92,-0.08
CCN(CC(=O)NC(C)(C)C)C(=O)CCl,0.14,0.69

Back to the main list with the 2 entries that preceded the break.
canonical_smiles,KCNQ2 enhance,KCNQ2 enhance baseline
Cc1cccc(NC2=Nc3ccccc3N3C2=Nc2c(c(C)nn2-c2ccccc2)C3c2ccc(O)c(O)c2)c1 (stereo not given),0.96,0.24
Nc1nnnn1/N=C/c1ccco1,0.24,0.01
COc1ccc(/C=N/Nc2nc(-c3ccc(C)cc3)c(NC(C)=O)s2)cc1OC,0.28,-1.7
O=C(O)C1CCCCC1C(=O)Nc1nc(-c2ccc(Cl)s2)cs1 (stereo not given),1.3,0.02
Cc1ccc(S(=O)(=O)NC(Cc2ccccc2)C(=O)O)cc1C (stereo not given),1.6,-1.2
O=C(NC1CC1)c1ccc(S(=O)(=O)NCC2CCCCC2)cc1,1,0.18
O=C1CSC(c2ccco2)N1 (stereo not given),0.14,-0.82
O=C(Nc1cccc([N+](=O)[O-])c1)c1ccc2ccccc2c1O,0.01,-1.3
Cc1cc(OCC(=O)NCc2ccccn2)c2c(C)c(Cc3ccccc3)c(=O)oc2c1,0.63,1.9
NC(=O)C1CCN(C(=O)c2cn(-c3ccccc3)nc2-c2cccnc2)CC1,0.48,-1.3
CCc1c(C)[nH]n(CCC#N)c1=O,0.55,-0.39
O=C(c1ccccc1NS(=O)(=O)c1ccc(F)cc1)N1CCOCC1,1.2,0.45
Cc1ccc(C)c(NC(=O)CN(C)C(=O)c2ccc(Cl)nc2)c1,0.31,1.8
CCOc1ccc(S(=O)(=O)N(CC)CC(=O)NCc2ccccn2)cc1C,0.73,-0.26
c1ccc(-c2ccc(OCCN3CCOCC3)cc2)cc1,0.58,-2.3
CC(O)CNC(=S)Nc1ccccc1 (stereo not given),0.84,0.41
Cc1cc(O)cc(=O)n1C,0.7,-0.02
Cn1c(N2CCOCC2)c(/C=N/OC(=O)c2ccc(F)cc2)c2ccccc21,1.3,-0.08
Cc1ccc([N+](=O)[O-])cc1NC(=O)c1cccs1,0.02,-0.97
CCn1c(C(=O)NCc2cccnc2)cc2sc(Cl)cc21,1.3,0.29
NNC(=O)Cn1c2ccccc2c2ccccc21,1.1,-0.6
Cc1ccc(S(=O)(=O)Nc2c(C)n(C)n(-c3ccccc3)c2=O)cc1C(=O)OCC(=O)N1CCCC(C)C1 (stereo not given),1,0.33
O=C(NCCCc1nc2ccccc2[nH]1)c1ccc(F)cc1,7.3*,0*
O=C(Nc1ccc2c(c1)OCCO2)c1c[nH]c(=O)n(-c2ccc(F)c(Cl)c2)c1=O,0.45,0.89
CC(=O)Nn1c(C)nnc1-n1nc(C)cc1C,0.86,-0.49
COc1ccc(CCNC(=O)CCn2c(=O)oc3ccccc32)cc1,0.15,-0.04
COC(=O)CSc1nnc(-c2ccncc2)o1,0.57,-0.98
COc1ccc2nc(SCC(=O)NCc3ccc(S(N)(=O)=O)cc3)[nH]c2c1,1.2,0.31
Cc1ccc(NC(=O)c2ccc(=O)[nH]c2)cc1S(=O)(=O)N1CCCCC1,1,0.15
CCN1C(=O)Nc2cccc3cccc1c23,0.81,0.25
Cc1ccccc1-c1ccc(=O)n(CC(=O)Nc2ccc(-n3cnnn3)cc2)n1,1.4,-1.9
COc1cccc(-c2cc(C(=O)Nc3ccn(Cc4ccc(C)cc4)n3)no2)c1,2.4,-1.6
O=C(NC(=S)Nc1ccc2c(c1)OCO2)c1ccccc1,1.1,-0.42
Cc1cccc(-n2c(=O)[nH]c3c(C(N)=O)nc(C(C)C)nc32)c1,0.04,2.5
O=C1CCCC2=C1C(c1cccc(O)c1)c1c(ccc3ncccc13)N2 (stereo not given),0.55,0.26
CC1CN(C(=O)/C=C/c2ccc3c(c2)OCO3)CC(C)O1 (stereo not given),0.76,1.3
